GALR2 ag: GALR2 receptor agonists, primary screen, cell-based | Galanin receptor type 2 (Homo sapiens), O43603 | GALR2-expressing cells, agonist activation read-out | activation, %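 (tested at 5 µM)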 | 140,000 tested, 0.48% active | AID 803, 2007;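 active means above mean plus 3 SD of all compounds, about 5% in these data, not always enough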;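 further: 0% = vehicle buffer wells and 100% = reference agonist at full effect; tested in CHO reporter cells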
Insulin prom inh: inhibitors of insulin promoter-driven GFP, primary screen, imaging, TRM-6 cells (human fetal islet line), eGFP reporter, cell count; 130,000 tested, 0.9% active; inhibition, % at 2 µM; reporter expression induced with tamoxifen;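 active means inhibition above the mean plus 3 SD, with well images judged a real hit on visual review, cut at about 60% in these data, passing the limit was not always enough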
RGS16-Gao HTS: modulators of RGS16 binding to Galphao, primary screen, biochemical, human proteins, multiplexed bead flow cytometry | binding response (% of control), % at 10 µM | Regulator of G-protein signaling 16 (Homo sapiens) + Guanine nucleotide-binding protein … | 220,000 tested, 0.38% active | AID 1441, 2008 | bead-based flow cytometry RGS16-Galphao binding, fluorescence; actives lie on both sides;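 active means below 25% or above 175%, edge rows of some plates excepted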;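 further: Galphao activated by GDP with aluminum fluoride before binding; 100% = wells without compound and 0% = beads without RGS; some results beyond the cut were filed as inactive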
HSV augment: enhancers of HSV replication in host cells, fold increase, host cell viability; 220,000 tested, 0.005% active; AID 1956, 2009; maximum fold increase; HSV replication augmentation in cells;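 active means peak rise of 1.5-fold or more in the series; tested in PC3 cells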;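 further: first round at 10 µM; read as green reporter fluorescence; hits show the peak of a series up to 25 µM; 1 = signal of infected wells without compound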
PKD1 kinase inh: inhibitors of human PKD1 kinase, biochemical, fluorescence polarization. Serine/threonine-protein kinase D1 (Homo sapiens), Q15139. PKD1 kinase fluorescence polarization assay. inhibition, %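 (about 10 µM by stock and volumes)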. 200,000 tested, 0.056% active. AID 797, 2007;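 active means inhibition of 50% or more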;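 further: controls were vehicle for no effect and a reference inhibitor for full effect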
Target sequence (Q15139 whole entry, looked up): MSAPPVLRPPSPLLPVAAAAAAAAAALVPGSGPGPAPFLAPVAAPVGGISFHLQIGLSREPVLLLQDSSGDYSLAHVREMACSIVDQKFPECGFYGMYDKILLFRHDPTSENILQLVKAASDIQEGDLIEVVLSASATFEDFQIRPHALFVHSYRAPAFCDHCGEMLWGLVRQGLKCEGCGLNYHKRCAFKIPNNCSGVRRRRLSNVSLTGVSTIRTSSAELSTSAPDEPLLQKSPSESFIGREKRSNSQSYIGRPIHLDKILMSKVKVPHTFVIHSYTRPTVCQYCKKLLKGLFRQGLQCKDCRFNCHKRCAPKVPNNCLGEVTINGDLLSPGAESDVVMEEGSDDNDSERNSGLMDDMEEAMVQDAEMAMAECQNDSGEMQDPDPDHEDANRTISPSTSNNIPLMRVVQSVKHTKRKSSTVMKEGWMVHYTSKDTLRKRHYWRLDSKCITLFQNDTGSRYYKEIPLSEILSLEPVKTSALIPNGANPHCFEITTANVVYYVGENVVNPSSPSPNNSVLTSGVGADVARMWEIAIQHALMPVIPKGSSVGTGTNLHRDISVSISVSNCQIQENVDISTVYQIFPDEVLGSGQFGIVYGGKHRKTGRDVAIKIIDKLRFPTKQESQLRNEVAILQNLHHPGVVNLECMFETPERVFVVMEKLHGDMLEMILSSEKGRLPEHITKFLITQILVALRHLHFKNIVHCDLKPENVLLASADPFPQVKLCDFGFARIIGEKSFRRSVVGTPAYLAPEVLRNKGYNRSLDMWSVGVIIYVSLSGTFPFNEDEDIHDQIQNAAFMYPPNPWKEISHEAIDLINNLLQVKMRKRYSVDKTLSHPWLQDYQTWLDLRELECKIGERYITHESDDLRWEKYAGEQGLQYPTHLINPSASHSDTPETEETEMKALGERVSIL
Insulin prom inh cell count: further read-out of Insulin prom inh, marked with its call; normalized cell count, %; measured here: cell count, toxicity; reference of the scale not given here;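 cells exposed to compound for 48 h; stained nuclei by imaging scaled within each plate; lower means fewer cells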
HSV augment primary fold: further read-out of HSV augment, marked with its call; fold increase; compound at 10 µM; measured here: primary screen fold increase 10 uM; tested in PC3 cells;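 GFP signal in the first replicate; 1 = infected wells without compound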
An asterisk follows results filed as active; i = inactive; . = not tested or not shown.

Every second line gives: GALR2 ag	Insulin prom inh	Insulin prom inh cell count	RGS16-Gao HTS	HSV augment	HSV augment primary fold	PKD1 kinase inh
Cc1ccc(C)c(S(=O)(=O)Nc2ccc(S(=O)(=O)Nc3onc(C)c3C)cc2)c1
→ -2.2	21.4	64.0	97.7	i	0.92	-9.8
Cc1cccc(-c2nc(CSCC(=O)N3CCN(c4ccccn4)CC3)c(C)o2)c1
→ -3.1	35.7	124.0	101.2	i	0.67	-3.5
COCCNC(=O)C(=O)NNC(=O)COc1ccc(OC)cc1
→ .	.	.	67.5	i	0.82	-1.7
COC(=O)CCN(C(=O)C1C2CC3CC(C2)CC1C3)c1ccccn1 (configuration not stated)
→ -2.7	-22.2	118.0	98.6	i	0.81	1.9
O=[N+]([O-])CC(=Nc1ccc(F)cc1)N/N=C\c1oc(O)c2ccccc12
→ .	.	.	99.1	i	1.07	.
Cc1ccccc1C(=O)Oc1ccc(Br)cc1C(=S)N1CCCC1
→ 0.0	10.3	121.0	111.4	i	0.86	0.2
COc1cccc(/C=C/C(=C2/C(=O)N(c3ccccc3)N=C2C)c2ccc(C)cc2)c1OC
→ -1.0	9.4	116.2	97.0	i	1.06	-0.9
Cc1nc(CSc2nnc(Nc3cccc(C)c3C)s2)cs1
→ -2.0	-20.0	89.5	95.6	i	0.82	-7.3
O=C(CSc1nc(-c2cccs2)cc(C(F)(F)F)n1)NCc1ccco1
→ -1.2	-159.3	107.0	103.5	i	0.97	2.6
CCOC(=O)C1CCCN(C(=O)C2CC(=O)N(c3ccc(C)cc3)C2)C1 (configuration not stated)
→ -1.8	14.6	138.1	104.9	i	0.83	1.3
Nc1nnc(SCC(=O)OCC(=O)Nc2ccc(Br)cc2)s1
→ -1.6	.	.	147.1	i	0.94	-2.0
COc1cc([N+](=O)[O-])cc(/C=N/NC(=O)c2cc(C)nc3ccccc23)c1O
→ .	.	.	95.7	i	0.95	.
CCCc1ccc(OCc2nc(-c3ccc(NC(=O)c4cccs4)cc3)no2)cc1
→ 0.1	11.4	69.1	131.0	i	0.64	-5.6
COc1ccc(NC(=O)c2oc3ccc(S(=O)(=O)N4CCOCC4)cc3c2C)cc1
→ .	.	.	103.1	i	1.02	0.6
Cc1c(NS(=O)(=O)c2ccc3nc(COc4ccccc4Cl)[nH]c3c2)c(=O)n(-c2ccccc2)n1C
→ .	.	.	97.6	i	0.96	1.7

Four of the compounds above, with each value named:
COc1cc([N+](=O)[O-])cc(/C=N/NC(=O)c2cc(C)nc3ccccc23)c1O
  GALR2 ag: .	Insulin prom inh: .	Insulin prom inh cell count: .	RGS16-Gao HTS: 95.7	HSV augment: i	HSV augment primary fold: 0.95	PKD1 kinase inh: .
CCCc1ccc(OCc2nc(-c3ccc(NC(=O)c4cccs4)cc3)no2)cc1
  GALR2 ag: 0.1	Insulin prom inh: 11.4	Insulin prom inh cell count: 69.1	RGS16-Gao HTS: 131.0	HSV augment: i	HSV augment primary fold: 0.64	PKD1 kinase inh: -5.6
COc1ccc(NC(=O)c2oc3ccc(S(=O)(=O)N4CCOCC4)cc3c2C)cc1
  GALR2 ag: .	Insulin prom inh: .	Insulin prom inh cell count: .	RGS16-Gao HTS: 103.1	HSV augment: i	HSV augment primary fold: 1.02	PKD1 kinase inh: 0.6
Cc1c(NS(=O)(=O)c2ccc3nc(COc4ccccc4Cl)[nH]c3c2)c(=O)n(-c2ccccc2)n1C
  GALR2 ag: .	Insulin prom inh: .	Insulin prom inh cell count: .	RGS16-Gao HTS: 97.6	HSV augment: i	HSV augment primary fold: 0.96	PKD1 kinase inh: 1.7

Following part:
Every second line gives: GALR2 ag	Insulin prom inh	Insulin prom inh cell count	RGS16-Gao HTS	HSV augment	HSV augment primary fold	PKD1 kinase inh
CC(C)CC(=O)Nc1ccc(C(=O)NNC(=O)C(c2ccccc2)c2ccccc2)cc1
→ -4.1	50.0	86.6	101.7	i	0.84	-7.8
O=C(NC1CCCCCC1)c1ccc(N2CCCC2=O)cc1
→ -0.8	.	.	106.9	i	0.85	-10.8
O=C(Nc1ccc(CN2CCCCC2)cc1)c1cccc(Br)c1
→ -0.4	.	.	95.9	i	0.99	18.8
CSc1ccc(/C=N\NC(=O)COc2ccc(Cl)cc2Br)cc1
→ -4.3	10.0	109.8	109.4	i	1.05	2.5
CCN(CC)C(=O)CSc1nnc(NC(=O)CCc2ccccc2)s1
→ -0.4	-41.5	125.0	99.7	i	1.02	-1.9
Cc1ccc(-c2c(C#N)c(N)nc3c2CCCC3)o1
→ .	.	.	99.9	i	1.05	-5.9
Cc1ccc(NC(=O)CSc2nnc(-c3ccccn3)n2N)c(Br)c1
→ .	.	.	95.5	i	1.08	.
CC1CCCN(C(=O)CSCC(=O)N=c2sc3ccccc3n2C)C1 (configuration not stated)
→ -1.9	-25.0	133.7	100.7	i	0.94	-0.7
CCc1ccc(NC(=O)CSc2nnc(-c3cccs3)n2CC)cc1
→ -1.6	-7.4	125.6	98.5	i	0.95	0.8
Cc1cc(Oc2ccccc2F)nc(NCc2ccccc2)n1
→ -2.0	-44.7	129.3	106.8	.	.	-1.4
Cc1ccc(C(=O)NCC(=O)Nc2ccccc2C(F)(F)F)cc1
→ -2.0	.	.	84.9	i	0.98	2.1
Cc1ccccc1-n1c(C)nnc1SCC(=O)N1CCc2ccccc2C1
→ 1.2	11.1	182.2	102.2	i	0.99	2.3
COc1ccc(-n2c(SCC(=O)O)nnc2-c2ccc(NC(=O)c3ccccc3)cc2)cc1
→ .	.	.	94.4	i	0.95	.
CCN1CCN(c2cc(C)c3cc(NC(=S)N4CCN(c5ccccc5F)CC4)ccc3n2)CC1
→ .	.	.	98.6	i	0.71	-0.3
Cn1nnnc1SCc1cn2cccnc2n1
→ -1.4	26.3	75.0	103.6	i	1.02	5.6
N#CCC(=O)NCCCOC(=O)Nc1ccc(Cl)c(Cl)c1
→ -1.7	-9.1	129.8	102.8	i	0.92	-7.5
CCNC(=O)c1ccccc1-c1nc(-c2ccccc2Cl)no1
→ -1.3	38.5	148.0	47.4	i	0.95	-4.3
COc1ccc(CNC(=O)C2COc3ccccc3O2)c(OC)c1 (configuration not stated)
→ -2.4	.	.	101.5	.	.	-7.2
Cn1c(SCc2nc3ccccc3[nH]2)nnc1-c1cccs1
→ -2.8	45.5	102.6	98.8	i	0.9	-6.8
CCOc1ccc(NC(=O)c2ccc(N)cc2)cc1
→ -1.6	-71.4	111.0	104.7	i	0.95	-3.1
Cc1c(C(=O)O)cccc1-c1ccc(/C=N/Nc2ccc(Br)cc2)o1
→ 3.1	32.3	105.4	101.3	i	1.09	-8.6
O=C(COc1ccccc1[N+](=O)[O-])NCc1cccnc1
→ 0.5	62.5	75.2	102.2	i	1	0.3
O=C(CSc1ccc(-c2nc3ccccc3[nH]2)cn1)Nc1ccc(S(=O)(=O)NC2CC2)cc1
→ -1.0	6.1	103.1	98.5	i	1	-7.2
CCOc1ccc(NC(=O)CCS(=O)(=O)c2ccc3c(c2)CCCN3C(C)=O)cc1
→ -1.8	-20.0	87.0	95.6	i	0.99	-5.7
Cc1c(Cl)cnc(NC(=O)COC(=O)Cc2coc3ccc4ccccc4c23)c1Cl
→ -0.5	19.4	66.7	100.9	i	1.03	-2.4
Cc1c(C(=O)Nc2ccncc2)oc2ccccc12
→ -0.3	.	.	100.8	i	0.69	-2.6
CCn1nc(C)c(NC(=O)/C=C/c2ccc(OC)c(COc3ccc(Br)cc3)c2)c1C
→ -2.5	56.2	167.3	121.8	i	0.84	1.1
CCCC(=O)Nc1ccc(C(=O)NNC(=S)NC(=O)c2cccs2)cc1
→ -0.2	-20.4	112.0	96.3	i	1.03	-14.8
Brc1c(CSc2nncn2-c2ccccc2)nc2sccn12
→ -2.6	.	.	100.4	i	1	-8.0
CCC(C)NC(=O)C(NS(=O)(=O)c1cccc2nsnc12)c1ccccc1 (configuration not stated)
→ -1.6	18.8	104.7	95.0	.	.	1.3
CC(C)OC(=O)/C(C#N)=C/c1ccc(-c2ccc(SC(F)F)cc2)o1
→ -1.1	12.5	97.3	124.3	i	1.13	-1.0
CN1C(=O)N(C)C(NC(=O)Nc2ccccc2)C1NC(=O)Nc1ccccc1 (configuration not stated)
→ -2.3	.	.	87.2	i	0.97	-4.0
CCOC(=O)c1nnn(CC(=O)NC(=O)Nc2cccc(CC)c2)c1C(=O)OCC
→ .	.	.	101.8	i	0.98	0.3
CCOc1ccccc1C1NC(=O)NC(C)=C1C(=O)OCc1ccco1 (configuration not stated)
→ -1.2	.	.	95.0	i	1.12	-4.4
COc1ccc(CN2CCN(C(=O)CC(C)C)CC2)c2ccccc12
→ 0.0	75.3*	101.4*	104.6	.	.	0.6
CCOC(=O)c1[nH]c(C)c(/C=N/O)c1C
→ -1.2	12.1	73.7	97.0	i	0.94	-4.6
C=CCn1c(=S)[nH]c2scc(-c3ccco3)c2c1=O
→ .	.	.	84.6	i	1.08	.
CSC1=N/C(=C\c2cccnc2)C(=O)N1c1ccccc1
→ -0.7	.	.	100.1	i	0.9	-9.5
COc1ccc(Cn2nnnc2C(c2cccs2)N2CCSCC2)cc1 (configuration not stated)
→ -1.1	-42.9	60.4	94.1	i	1.06	-12.1
COc1ccc(-c2[nH]ncc2/C=C(\C#N)C(=O)NC2CC2)cc1
→ 1.0	73.0*	67.4*	102.6	i	1.04	2.6
O=S(=O)(N/N=C\c1cn(-c2ccccc2)nc1-c1ccccc1)c1ccccc1
→ -1.5	.	.	101.6	i	0.91	-2.8
O=C(O)CN1C(=O)SC(Nc2ccccc2C(=O)O)C1=O (configuration not stated)
→ -1.2	-16.7	111.7	101.4	i	0.93	0.8
O=C(COc1cccc(Br)c1)N/N=C1\CCCc2ccccc21
→ .	.	.	102.1	i	0.79	-4.6
N#Cc1c(SCC(N)=O)nc2c(c1-c1ccc(O)cc1)CCCC2
→ 0.3	20.0	89.7	102.0	i	0.88	0.7
CC(NC(=O)OCc1ccccc1)C(=O)OCN1C(=O)c2ccccc2C1=O (configuration not stated)
→ -2.0	-13.6	105.8	65.3	i	0.9	-9.2

One compound at a time, as listed above. Order of screens: GALR2 ag | Insulin prom inh | Insulin prom inh cell count | RGS16-Gao HTS | HSV augment | HSV augment primary fold | PKD1 kinase inh
`O=C(COc1cccc(Br)c1)N/N=C1\CCCc2ccccc21` across the screens: . | . | . | 102.1 | i | 0.79 | -4.6
`CC(NC(=O)OCc1ccccc1)C(=O)OCN1C(=O)c2ccccc2C1=O` (configuration not stated) across the screens: -2.0 | -13.6 | 105.8 | 65.3 | i | 0.9 | -9.2
`CCOc1ccccc1C1NC(=O)NC(C)=C1C(=O)OCc1ccco1` (configuration not stated) across the screens: -1.2 | . | . | 95.0 | i | 1.12 | -4.4

Later entries:
Every second line gives: GALR2 ag	Insulin prom inh	Insulin prom inh cell count	RGS16-Gao HTS	HSV augment	HSV augment primary fold	PKD1 kinase inh
Cc1ccc(C2CCN(C(=S)NC(C)C)C2)cc1 (configuration not stated)
→ .	.	.	97.5	i	0.95	-1.0
COc1ccc(N2C(=O)Cc3c2nc(N)c(C#N)c3N)cc1
→ .	.	.	101.6	i	0.98	.
O=C(NCC1CCCO1)c1cccc(F)c1 (configuration not stated)
→ -1.3	2.7	162.9	101.3	i	0.993	-18.5
Cc1ccc(NC(=O)C[n+]2ccn(C3=C([O-])c4ccccc4C3=O)c2)cc1
→ .	.	.	100.1	i	0.91	-2.2
CC1(N2CCOCC2)C(=O)c2ccccc2C1=O
→ 0.3	-30.0	67.3	112.6	i	0.96	-8.7
CC(CN1CCCC1)OC(=O)COc1ccccc1 (configuration not stated)
→ -1.6	-3.0	96.0	97.6	i	1.03	-0.7
CCOC(=O)C(NC(=O)NCc1ccc(OC)cc1)(OCC)C(F)(F)F (configuration not stated)
→ -1.5	11.8	107.8	90.6	i	0.74	-11.0
CC(C)[C@H](NC(=O)c1ccccc1)C(=O)OCC(=O)NCCc1ccc(F)cc1
→ -1.0	-77.4	87.2	98.7	i	1.01	-3.0
COc1cc(/C=N/N2CCOCC2)ccc1OCc1ccccc1
→ .	-16.7	58.6	106.8	i	1.01	-5.8
O=C(CSc1nc2ccccc2n1CC(=O)N1CCOCC1)N1CCCC1
→ -3.6	-13.3	81.5	113.9	i	0.83	-4.0
Cc1c(C(=O)Nc2ccccc2)sc2nc[nH]c(=O)c12
→ -0.6	63.0	100.8	104.4	i	1.14	3.8
CC(C)CC(=O)Nc1ccc(-c2cn3ccsc3n2)cc1
→ -2.4	43.8	120.9	100.8	i	0.88	-1.2

Screens as filed in PubChem BioAssay.
